# Calb FLC = affects C. albicans growth with fluconazole | C. albicans CaCi-2 (fluconazole-resistant clinical isolate) + fluconazole, Alamar Blue growth, 48 h | hit rate 0.57% among 300,000 | growth inhibition, % (test concentration not listed);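 active = most replicates above 75%; inconclusive = exactly half above 75%; inactive = most below 75%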;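 also: all wells also contain fluconazole at 8 µg/ml as a sub-toxic cotreatment; 0% = median of DMSO wells and 100% = median of geldanamycin control wells; wells of about 8 µL received 7.5 nL stock; the first replicate is given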
# ALR H2O2 inh = human ALR oxidase inhibition via reduced H2O2. purified ALR, DTT oxidation, H2O2 HRP-luminol luminescence. inhibition, % (concentration not given with the values). P55789. AID 485317. hit rate 3.8% among 290,000;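 active = mean and each replicate at 75% or more; inconclusive = only one of the two met; inactive = neither met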;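 also: stock transfer was 7.5 nL into about 7.5 µL; 0% = neutral wells and 100% = wells with inactivated enzyme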
# Target sequence (P55789 whole entry, looked up): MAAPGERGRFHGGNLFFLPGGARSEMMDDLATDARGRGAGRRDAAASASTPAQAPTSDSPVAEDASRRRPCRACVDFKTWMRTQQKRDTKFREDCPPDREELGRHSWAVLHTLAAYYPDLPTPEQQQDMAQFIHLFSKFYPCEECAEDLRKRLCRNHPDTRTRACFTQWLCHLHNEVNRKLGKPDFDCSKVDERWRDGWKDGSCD
# MLL AF4-AF9 inh = blocks AF4 peptide binding to human AF9. AlphaScreen, biotin-AF4 peptide binding to FLAG-AF9. hit rate 0.47% among 350,000. inhibition, % at 10 µM. AID 651704. P42568;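 active = every replicate reaching a set inhibition limit, whatever the replicate mean, cut at about 25% in these data; inconclusive = mean inhibition reaches that limit but some replicates miss it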;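 also: 0% = plate neutral control median and 100% = total signal loss; the record names both 10 and 1 µM as test concentration; the first replicate is given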
# Target sequence (P42568 whole entry, looked up): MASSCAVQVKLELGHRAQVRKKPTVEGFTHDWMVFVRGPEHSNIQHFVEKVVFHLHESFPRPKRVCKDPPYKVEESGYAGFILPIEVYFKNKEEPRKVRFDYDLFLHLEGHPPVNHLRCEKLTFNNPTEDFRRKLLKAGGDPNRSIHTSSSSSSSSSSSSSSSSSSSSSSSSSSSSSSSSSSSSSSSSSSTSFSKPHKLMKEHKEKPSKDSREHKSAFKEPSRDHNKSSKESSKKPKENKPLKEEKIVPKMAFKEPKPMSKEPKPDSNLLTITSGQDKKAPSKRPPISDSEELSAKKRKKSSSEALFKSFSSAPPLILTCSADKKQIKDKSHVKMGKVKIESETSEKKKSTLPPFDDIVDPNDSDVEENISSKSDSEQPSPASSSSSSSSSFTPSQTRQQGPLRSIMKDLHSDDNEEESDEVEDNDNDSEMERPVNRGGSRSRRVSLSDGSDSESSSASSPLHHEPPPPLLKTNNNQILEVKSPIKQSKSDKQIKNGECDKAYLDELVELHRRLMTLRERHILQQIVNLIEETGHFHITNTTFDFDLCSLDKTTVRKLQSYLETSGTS
# T cruzi inh = T. cruzi replication inhibition. hit rate 1.4% among 300,000. inhibition, % (test concentration not listed). T. cruzi beta-gal in NIH3T3, luminescence, 90 h. AID 1885;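 active = mean inhibition across valid replicates above about 55%, limit read from the data; inconclusive = mean below that limit but half or more replicates reach it; inactive = mean below it, under half of replicates reach it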;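 also: signal also drops with host cell toxicity which is not excluded here; 0% = plate median of DMSO wells and 100% = zero luminescence signal; higher percent means less beta-gal luminescence so fewer parasites; stock transfer was 50 nL into about 50 µL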
# Ecoli rRNA inh = selective bacterial rRNA inhibition in E. coli; E. coli WT GFP vs humanized-ribosome RFP mutants, fluorescence, 24 h; active compounds read low; DMSO median 0, no signal -100; GFP signal change (wild-type ribosome), % (concentration not given with the values); hit rate 1.6% among 350,000;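 active = significant combined selectivity score with lowered wild-type GFP, culture density cut under 30%, mutant RFP and density less affected; inactive = any of these conditions unmet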; also: one replicate is shown; some compounds called inactive have numbers as strong as hits
# FGF22 binding = binders of recombinant human FGF22 by thermal shift; hit rate 1.5% among 340,000; SYPRO orange fluorescence; percent of sucrose octasulfate shift, DMSO zero; Q9HCT0; calls only at 9.99 µM;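 active = melting point raised past a set limit in the mean and every replicate; inconclusive = no clear call; three in four hits are not shown here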
# Target sequence (Q9HCT0 whole entry, looked up): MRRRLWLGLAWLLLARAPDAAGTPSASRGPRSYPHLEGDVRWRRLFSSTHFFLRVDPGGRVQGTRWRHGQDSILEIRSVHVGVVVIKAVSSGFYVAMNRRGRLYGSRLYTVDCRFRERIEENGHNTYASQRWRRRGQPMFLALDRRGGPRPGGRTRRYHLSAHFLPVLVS
# Beta cell apopt = blocks beta cell apoptosis; INS-1E cytokine-induced death, ATP luminescence, 48 h; percent of positive-control rescue, neutral wells zero; protection from apoptosis, % (no concentration beside the values); hit rate 0.8% among 300,000;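 active = all replicates at 75% or more, or half of them and the mean; inconclusive = half reach 75% but not the mean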;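 also: 0% = cytokine-treated negative control wells and 100% = positive control rescue; higher means more ATP so stronger rescue from cytokine killing; wells of about 40 µL received 100 nL stock; the first replicate is given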
# RanGTP-Impb inh = inhibitors of RanGTP-importin-beta interaction, primary screen, biochemical, FRET, CFP-Ran, YFP-importin-beta, homogeneous; hit rate 1.1% among 300,000; cell-free CFP-Ran/YFP-importin-beta FRET ratio; AID 2216; inhibition, % (concentration not given with the values);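 active = most replicates above 15%; inconclusive = exactly half above 15%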;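 also: 0% = DMSO wells and 100% = Ran loaded with GDP instead of GTP; wells of about 40 µL received 100 nL stock; the first replicate is given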
# Ecoli rRNA inh OD600 = also measured in Ecoli rRNA inh; calls as there; OD600 change, %; measured here: OD600 growth;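 optical density of the mix in the first replicate; 0 = DMSO median and -100 = no signal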
# Ecoli rRNA inh RFP = also measured in Ecoli rRNA inh; calls as there; RFP signal change, %; measured here: RFP humanized mutant strains;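 first replicate; 0 = DMSO median and -100 = no signal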
# * hit, by the source's call; i = inactive; ? = inconclusive; / = not tested or not shown. The list is partial, so the mix of outcomes need not match the whole.
canonical_smiles	Calb FLC	MLL AF4-AF9 inh	Ecoli rRNA inh	Ecoli rRNA inh RFP	Ecoli rRNA inh OD600	ALR H2O2 inh	RanGTP-Impb inh	FGF22 binding	Beta cell apopt	T cruzi inh
CC1=C(C(=O)N(C)C)C(c2cccs2)NC(=O)N1 (centres undefined)	?	/	/	/	/	-4	6.6	/	-5	-4
COc1cc2ccccc2cc1C(=O)Nc1ccccc1N1CCCC1	9	5.5	2	6.1	-1	-6	1.6	i	5	28
CC(C)(C)NC(=O)c1cccnc1Sc1ccccc1	-52	-3.8	12	2.8	2	2	3.0	i	-1	-7
Cc1[nH]nc2c1C(C(C)C)C(C#N)=C(N)O2 (centres undefined)	15	/	/	/	/	14	-3.0	/	-5	-4
COc1ccc(-c2[nH]ncc2CN2CCN(Cc3cccs3)CC2)c(F)c1	-4	3.9	5	-2.0	2	-8	1.4	i	-9	12
COc1ccc2c(C(=O)CCl)c[nH]c2c1	62	/	-3	4.6	-5	21	8.7	i	-35	48
CCOC(=O)CC[C@H](NC(=O)Cn1cnc2c(SC)nc(N)nc21)C(=O)OCC	/	-6.5	6	1.4	3	/	/	i	-2	/
Cc1nc(Nc2ccc(Br)cc2Br)c([N+](=O)[O-])c(=O)[nH]1	-10	1.1	3	-6.0	1	2	-1.6	i	3	-26
CC(N=C1NC(C)(C)Cc2ccccc21)C(=O)O (centres undefined)	17	-11	17	2.1	18	-23	0.6	/	5	0
COc1ccc(-c2cc(C(F)(F)F)nc(NCc3cccnc3)n2)cc1	1	/	/	/	/	-5	-1.6	/	-1	49
COc1ccccc1N1CCN(/N=C/C=C\c2ccccc2[N+](=O)[O-])CC1	-3	51*	-21	-1.2	-17	28	-0.4	/	0	12
COCCNC(=S)Nc1ccc2nc(N3CCCC3)cc(C)c2c1	-1	/	/	/	/	72	0.4	/	-1	14
CCOC(=O)CCCn1ncn2c(cc3occc32)c1=O	-4	/	/	/	/	-3	0.0	/	-3	-1
Cc1ccc(S(=O)(=O)N(CC(=O)Nc2cccnc2)c2ccccc2C)cc1	-6	1.7	-7	0.4	-20	-4	2.0	i	-5	-6
CCCCNCc1ccc(OCc2ccc(Cl)nc2)c(OC)c1	-23	-0.4	11	-1.0	0	-2	0.0	i	7	24
COc1ccccc1Nc1ccc([N+](=O)[O-])cc1N	-37	7.8	-10	-0.8	-5	/	-4.3	i	8	26
O=C(O)C1CCCCC1C(=O)N1CCN(S(=O)(=O)c2ccc(F)cc2)CC1 (centres undefined)	4	-0.1	9	-2.4	6	-4	1.7	i	-3	-4
O=C(O)C1C2CCC(C2)C1C(=O)N1CCCC1 (centres undefined)	-4	3.0	2	-1.7	10	-8	-1.8	i	3	-5
Cc1nc2scc(C)n2c(=O)c1S(=O)(=O)NCC1CCN(Cc2ccc(Cl)cc2)CC1	-21	-13	8	6.9	-1	/	1.4	i	-3	16
Cc1cccc2c1N(CCOc1ccc(C(C)(C)C)cc1)C(=O)C2=O	10	/	/	/	/	-2	2.7	/	-7	12
O=C(CNC(=O)c1ccc(N2C(=O)c3ccccc3C2=O)cc1)OCC(=O)c1ccc(Cl)cc1	/	-0.7	4	3.0	7	-6	/	i	-7	-37
CCN(CC)CCNC(=O)Cc1c(C(=O)O)n(CC)c2ccccc12	-1	8.9	11	4.8	1	-7	2.4	i	2	-8
O=C(CNC(=O)c1ccc(Cl)cc1Cl)OCCOc1ccccc1	/	-1.4	-2	-2.3	-6	-2	4.9	i	1	-2
CCCSc1ccc([C@H]2N[C@@](C)(C(=O)OC)[C@H]3C(=O)N(C)C(=O)[C@@H]23)cc1	-17	1.1	3	-4.7	4	-2	-1.1	i	-4	-19
O=C(O)C1C2C=CC(C2)C1C(=O)NCCCn1ccnc1 (centres undefined)	-4	/	/	/	/	-4	-2.4	/	-7	-6
CCc1cccc(NC(=O)CCCn2nc(C)c3c(C)n(-c4ccccc4)nc3c2=O)c1	36	-2.4	18	-1.6	9	-1	3.8	i	-2	10
OCCCc1cn(CC2CCCCC2)nn1	-2	/	1	-1.6	8	3	-3.4	i	-4	-17
O=S(=O)(/C=C/c1ccccc1)c1ccccc1	0	/	/	/	/	-6	2.2	/	-9	-14
COc1ccc(CN(Cc2ccc(C(=O)O)cc2)C(=S)Nc2cccc(C)c2)cc1OC	5	-1.2	2	-3.0	1	-21	-0.8	/	-4	-1
O=C(O)CCc1nn2c3ccccc3nc2n(-c2ccccc2)c1=O	39	2.9	5	1.6	8	-4	2.4	/	-4	-11
Cc1ccc(S(=O)(=O)N2CCOCC2)cc1NS(=O)(=O)c1ccc(F)c(F)c1	/	-3.5	-1	-2.3	-16	-5	/	i	-1	/
CCOc1ccc(NC2=CC(=O)CC(c3ccco3)C2)cc1 (centres undefined)	-11	3.2	-11	-8.1	-10	-11	4.6	/	1	15
O=c1[nH]c2cc3c(cc2cc1CN(Cc1cccs1)Cc1nnnn1Cc1ccco1)OCCO3	0	/	/	/	/	/	-3.9	/	-6	18
Cc1ccc(NC(=O)Cn2cnc3c(=O)n(C)c(=O)n(C)c32)c(C)c1	2	/	/	/	/	-22	2.9	/	-4	0
Clc1ccccc1CN(Cc1ccco1)Cc1nnnn1C1CCCC1	8	/	/	/	/	/	3.8	/	-17	23
COc1ccc(NC(=O)CCn2c(=O)c3cccn3c3ccccc32)c(OC)c1	-3	4.3	-3	-2.9	-14	-6	0.9	i	-4	10
COc1ccc(S(=O)(=O)N2c3cc(Cl)ccc3Oc3nc4ccccc4nc32)cc1	-5	/	/	/	/	-13	0.4	/	45	27
CCc1ccc(CNCCNCC(C)O)cc1 (centres undefined)	7	/	/	/	/	-4	7.4	/	0	42
Cc1ccc(C(=O)N(c2ccccc2)C2CC(C)N(C(=O)c3ccco3)c3ccccc32)cc1 (centres undefined)	-6	/	/	/	/	1	-0.4	/	12	24
CC1=C(C(=O)Nc2ccc(C)cc2)C(c2ccc(C)o2)C2=C(CC(C)(C)CC2=O)N1 (centres undefined)	/	/	/	/	/	1	-4.0	/	-4	10
COc1cccc(/C=C/C(=O)OCC(=O)NCc2ccco2)c1OC	8	0.0	-18	9.9	-20	-3	5.2	i	-2	-4
CCC(Oc1ccc(C)c(C)c1)C(=O)O (centres undefined)	2	/	/	/	/	-17	1.0	/	0	9
O=C(CN1CCCCC1)Nc1scc2c1c(=O)oc1ccccc12	9	0.3	/	/	/	-1	-0.3	i	-7	15
CCC(CC)C(=O)N1CC(=O)Nc2ccc(F)cc2C1c1ccccc1 (centres undefined)	5	-0.6	3	-4.8	-2	-1	-2.5	i	-6	-2
CCN(CC)S(=O)(=O)c1cccc(C(=O)NC(C)C(c2cccs2)N2CCCC2)c1 (centres undefined)	3	1.8	/	/	/	1	-1.6	i	-8	1
Cc1ccc(Oc2cc(C)nc(-c3ccccc3O)n2)cc1	2	/	/	/	/	2	-3.3	/	4	-6
Cn1cnc2cc(NCc3ccccc3O)ccc21	9	0.0	9	-0.4	9	87*	0.9	i	-10	2
O=C(O)c1cn(-c2ccccc2)nc1-c1cccnc1	21	/	/	/	/	-2	7.8	/	-6	-6
O=C(c1ccc2c3c(cccc13)CC2)C1CCCN(Cc2ccncc2)C1 (centres undefined)	3	14	-8	14	-11	-4	3.5	i	19	41
COc1ccccc1-c1oc2ccccc2c1-c1ccc2c(c1)OCO2	/	1.7	6	-3.6	0	-10	/	i	11	/
Cc1ccc(Oc2ncccc2/C=N/OCc2ccc(Cl)c(Cl)c2)cc1	7	/	/	/	/	26	-0.1	/	-2	20
CCCN1CCN(CCCNC(=S)Nc2ccc3nc(N4CCN(CC)CC4)cc(C)c3c2)CC1	-1	7.7	0	-3.3	0	/	4.0	i	-4	-15
O=C1CCCC1C(=O)Nc1ccc2ccccc2c1 (centres undefined)	5	-4.5	-9	-6.1	-4	-16	-5.0	i	1	12
O=C(O)c1cnn(-c2nc(-c3ccc(Br)cc3)cs2)c1C(F)(F)F	36	-2.3	-40	-7.8	-55	-1	1.3	i	-4	-7
COc1ccc(N(Cc2cc3ccccc3[nH]c2=O)S(=O)(=O)c2ccc(C)cc2)cc1	-4	-6.5	11	1.3	15	/	3.5	i	-4	13
NS(=O)(=O)c1ccc(NC(=O)c2cc(-c3ccccc3O)n[nH]2)cc1	-15	0.7	8	-2.4	9	-4	2.3	i	0	-6
Cc1sc2nc(-c3cccnc3)[nH]c(=O)c2c1-c1ccccc1	35	-1.3	6	2.0	8	-2	0.3	i	-2	2
O=C(c1ccccc1-c1nc(-c2ccccc2Cl)no1)N1CCOCC1	28	3.8	-5	1.3	0	-3	1.6	i	-12	/
O=C(Cc1ccc(Br)cc1)NC1CCCCC1	-13	/	/	/	/	-3	0.0	/	-6	-4
C=CCn1c(N)c(C(=O)OCC)sc1=S	11	/	/	/	/	99*	2.0	/	-1	-7

# Single records, from the list above.
# Record of O=C1CCCC1C(=O)Nc1ccc2ccccc2c1 (centres undefined) : Calb FLC = 5; MLL AF4-AF9 inh = -4.5; Ecoli rRNA inh = -9; Ecoli rRNA inh RFP = -6.1; Ecoli rRNA inh OD600 = -4; ALR H2O2 inh = -16; RanGTP-Impb inh = -5.0; FGF22 binding = i; Beta cell apopt = 1; T cruzi inh = 12
# Record of Cc1ccc(Oc2ncccc2/C=N/OCc2ccc(Cl)c(Cl)c2)cc1 : Calb FLC = 7; MLL AF4-AF9 inh = /; Ecoli rRNA inh = /; Ecoli rRNA inh RFP = /; Ecoli rRNA inh OD600 = /; ALR H2O2 inh = 26; RanGTP-Impb inh = -0.1; FGF22 binding = /; Beta cell apopt = -2; T cruzi inh = 20

# Following part
canonical_smiles	Calb FLC	MLL AF4-AF9 inh	Ecoli rRNA inh	Ecoli rRNA inh RFP	Ecoli rRNA inh OD600	ALR H2O2 inh	RanGTP-Impb inh	FGF22 binding	Beta cell apopt	T cruzi inh
O=C(Cn1c2ccccc2c(=O)c2ccccc21)N/N=C/c1cc([N+](=O)[O-])ccc1N1CCCCC1	0	/	/	/	/	-2	10	/	15	1
O=C(OCC(=O)N1CCCc2ccccc21)c1ccc(C(F)(F)F)cc1	-4	-8.0	6	1.0	1	-3	2.6	i	-2	-8
O=C(CCC1CCCC1)NCc1ccccn1	-7	/	/	/	/	/	-3.2	/	-2	-9
CCOc1ccc2nc(SCC(=O)Nc3cc4c(cc3C(C)=O)OCO4)[nH]c2c1	20	/	/	/	/	/	1.9	/	-11	0
CCOC(=O)c1ccc(N/C(=N/S(=O)(=O)c2ccccc2)c2ccccc2)cc1	-10	0.7	-5	-1.0	4	0	-1.5	i	3	-1
COc1ccc(C(=O)c2c(C(F)(F)F)oc3c2C(=O)c2ccccc2C3=O)cc1OC	-18	/	/	/	/	-46	-1.9	/	/	65*
Cn1c(=O)c2c(ncn2CC(=O)N2CCN(c3ccccc3F)CC2)n(C)c1=O	-12	/	-1	-1.2	-6	1	-0.1	/	-7	-4
